From PubChem
NS1 inh – qHTS Assay for Inhibitors of Influenza NS1 Protein Function | AID 2326, 2010 | actives 0.4% (n = 270,000) | S. cerevisiae slowed by influenza A NS1, growth recovery by OD600 | Potency, µM (top dose mostly 46.1 µM), without a hit: at the highest dose activity, positive = more growth; active means well fitted rising curve with a large enough effect; inconclusive means small, poorly fitted or top-dose-only effect; inactive means no such curve, though single readings can be large or run the other way; also: nearly all actives have a fitted effect of over 50% in size
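S. cerevisiae expressing influenza A NS1, grown in glucose, washed, then diluted 1:100 into pH 6.0 -URA galactose medium with 23 nl compound. Growth recovery read as OD600; NS1-free strain serves as control.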
SARS PLP yeast – qHTS of Yeast-based Assay for SARS-CoV PLP. Potency, µM (highest dose often 32.9 µM), without a hit: at the top dose activity, positive = growth rescue. actives 0.19% (n = 330,000). S. cerevisiae expressing SARS-CoV PLpro, growth rescue; control for the full effect not named in the record; active means well fitted rising curve with a large enough effect; inconclusive means small, poorly fitted or top-dose-only effect; inactive means no such curve, though single readings can be large or run the other way; also: 0% is about no effect; nearly all actives have a fitted effect of over 55% in size; growth read by luminescence after 48 h
MARV entry inh – qHTS for inhibitors of binding or entry into cells for Marburg Virus | actives 1.8% (n = 300,000) | Marburg virus pseudotyped entry inhibition, cell reporter; control for the full effect not named in the record; about a third of the inactives were read at about 46 µM | Potency, µM (titrated, usually from 37.8 µM), without a hit: top-dose activity change, negative = inhibition, actives largely listed as inhibitors; active = well fitted inhibition curve with a large enough effect; inconclusive = small, poorly fitted or top-dose-only effect, or effect the other way; inactive = flat fitted curve, though single readings scatter; tested in HEK293 cells; about a fifth of its hits are not listed in these tables; also: % is scaled to controls: 0 for no effect and ±100 for the full control effect; luciferase read-out
Cruzain inh Det – qHTS Assay for Promiscuous and Specific Inhibitors of Cruzain (with detergent); Potency, µM, without a hit: max response, negative = inhibition, actives largely listed as inhibitors; actives 0.43% (n = 200,000); AID 1478, 2009; purified cruzain, Z-FR-AMC fluorescence, 0.01% Triton; Cruzipain (Trypanosoma cruzi), P25779;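 also: plate controls were neutral wells for no effect and buffer without enzyme for full effect; nearly all actives have a fitted effect of over 40% in size; top concentration of the series not given in the record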
Target sequence (P25779 123-467 limits assumed): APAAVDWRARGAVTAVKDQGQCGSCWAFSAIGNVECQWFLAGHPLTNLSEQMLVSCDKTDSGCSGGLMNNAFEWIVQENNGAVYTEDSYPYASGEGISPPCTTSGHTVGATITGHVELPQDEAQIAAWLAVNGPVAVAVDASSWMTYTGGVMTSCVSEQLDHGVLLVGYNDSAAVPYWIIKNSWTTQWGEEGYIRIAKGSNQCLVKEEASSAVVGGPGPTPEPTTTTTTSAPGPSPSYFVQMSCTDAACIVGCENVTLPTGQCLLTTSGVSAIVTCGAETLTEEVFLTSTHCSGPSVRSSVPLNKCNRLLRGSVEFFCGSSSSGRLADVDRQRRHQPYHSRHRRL
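Purified cruzain (1.5 nM final) was preincubated with compounds for 15 min at room temperature in 100 mM sodium acetate pH 5.5, 5 mM DTT, 0.01% Triton X-100. Reaction started with 2 uM Z-FR-AMC; AMC fluorescence change over 60 s gave activity.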
RE007 growth inh – qHTS Assay for Inhibitors of the HIV-1 protein Vpr; AID 651644, 2012; S. pombe RE007 Vpr strain, BacTiter-Glo ATP luminescence, 24 h; control for the full effect not named in the record; actives 0.21% (n = 360,000); Potency, µM (titrated, usually from 92.2 µM), for inactives: at the highest dose activity change, negative = less growth; active = well fitted falling curve with a large enough effect; inconclusive = small, poorly fitted or top-dose-only effect; inactive = no such curve, though single readings can be large or run the other way;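 also: % is scaled to controls: 0 for no effect and ±100 for the full control effect; nearly all actives have a fitted effect of over 50% in size; the assay follows cell death caused by Vpr and the record does not say whether a fall means rescue or toxicity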
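Fission yeast RE007 carrying one integrated HIV-1 vpr copy, seeded at OD 0.01 in PMG+AL medium with 23 nL pinned compound. Grown 24 h at 30 degrees; viability read by BacTiter-Glo luminescence after 5 min.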
LASV entry inh – qHTS for Inhibitors of binding or entry into cells for Lassa Virus | Potency, µM (top dose mostly 37.9 µM), inactives show top-dose activity change, negative = inhibition, actives largely listed as inhibitors | Lassa virus pseudotype entry inhibition, cell reporter; control for the full effect not named in the record | AID 540256, 2011 | actives 1.2% (n = 300,000); active means well fitted inhibition curve with a large enough effect; inconclusive means small, poorly fitted or top-dose-only effect, or effect the other way; inactive means flat fitted curve, though single readings scatter; tested in HEK293 cells; also: % is scaled to controls: 0 for no effect and ±100 for the full control effect; nearly all actives have a fitted effect of over 50% in size; luciferase read-out
Cruzain inh noDet – qHTS Assay for Promiscuous and Specific Inhibitors of Cruzain (without detergent); Potency, µM, for inactives: max response, negative = inhibition, usual class: inhibitors; Cruzipain (Trypanosoma cruzi), P25779; actives 2.3% (n = 200,000); purified cruzain, Z-FR-AMC fluorescence, no detergent; AID 1476, 2009;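 also: plate controls were enzyme without inhibitor for no effect and buffer without enzyme for full effect; nearly all actives have a fitted effect of over 40% in size; top concentration of the series not given in the record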
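Detergent-free condition (0.00005% Triton X-100) in acetate buffer pH 5.5 with DTT. 1.5 nM enzyme and compound were pre-mixed 15 min, then 2 uM Z-FR-AMC substrate added; reaction progress from fluorescence change between first and third reads (60 s).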
StopGo reporter – High Throughput Screening for Foot and Mouth Disease Virus Antivirals; human cells with a luciferase reporter of 2A StopGo recoding; control for the full effect not named in the record; Potency, µM (series often up to 57.9 µM), for inactives: at the highest dose signal change, negative = less light; actives 1.2% (n = 410,000); AID 1159524, 2015; active = well fitted falling curve with a large enough effect; inconclusive = small, poorly fitted or top-dose-only effect; inactive = no such curve, though single readings can be large or run the other way; tested in HEK293T cells; also: % is scaled to controls: 0 for no effect and ±100 for the full control effect; nearly all actives have a fitted effect of over 45% in size; luciferase light after 4 h
* marks the source's active call; other numbers are inactive results; ? = inconclusive; / = not tested or not shown; & = joins results of further samples; [ ] = dose if it differs, or a comment. Unless noted, calls follow the shape of the dose curve; as a rule, active = well fitted curve in the direction sought with a large enough effect; inconclusive = small, poorly fitted or top-dose-only effect, or another doubt; inactive = no such curve, though single readings can be large; an effect the other way counts as inactive or inconclusive. Potency is read from the fitted curve at half-maximal effect.

SMILES	NS1 inh	SARS PLP yeast	MARV entry inh	Cruzain inh Det	RE007 growth inh	LASV entry inh	Cruzain inh noDet	StopGo reporter
CC1(C)CC(=O)/C(=C(\O)c2ccccc2)C(=NCCO)C1	-11.1%	7.1%	0.3%	2.5%	-22.9%	0.1%	2.6%	7.5%
CCc1ccccc1NC(=O)CC(c1ccc(F)cc1)N1Cc2ccccc2C1=O (stereo not given)	/	/	/	-5.6%	/	?	-3.7%	9.8%
CCCn1nc(C(=O)NNC(=O)c2cc(S(=O)(=O)NC)ccc2Br)c2ccccc2c1=O	/	4.7%	13.0%[46.1 µM]	/	1.4%	?	/	-7.7%
Cc1cccc(N(Cc2ccccc2)C(=O)c2ccc(S(C)(=O)=O)cc2)c1	?	5.1%	-1.9%	/	1.1%	2.0%	/	2.9%
O=C(NCc1ccc(F)cc1)C1CCCN1C(=O)Nc1ccc(F)cc1 (stereo not given)	-43.2%	-9.8%	/	/	3.2%	/	/	-0.9%
CCCn1c(CCc2ccccc2)nnc1SCC(=O)N1CCOCC1	-0.2%	1.3%	6.8%[46.1 µM]	-0.7%	0.9%	14.7%	-2.2%	-1.5%
COCCNC(=O)c1cc(Sc2ccc(F)cc2F)nc2ccccc12	/	/	/	-0.1%	/	?	-4.8%	-2.9%
CCOc1ccc(CCNC(=O)c2cnc3c(-c4ccc(F)cc4)c(C)nn3c2C)cc1	/	/	/	0.7%	/	-15.8%[46.1 µM]	-1.4%	-9.5%
Cc1ccc(S(=O)(=O)c2c(C)cc(C)nc2Cl)c(C)c1	-7.8%	15.4%	0.8%	-1.3%	25.7%	0.5%	-0.5%	-22.1%
O=C(c1ccccc1F)N1CCN(c2ccccn2)CC1	19.1%	17.0%	8.2%[46.1 µM]	/	-7.5%	9.2%[46.1 µM]	/	-11.5%
CN(Cc1ccc(F)cc1)C(=O)c1sccc1-c1ccccc1	16.8%	0.4%	/	/	8.7%	/	/	1.2%
CCOc1ccc2oc(C(=O)N3CCN(Cc4ccccc4)CC3)c(C)c2c1	-7.4%	0.5%	?	/	-4.1%	-22.9%[46.1 µM]	/	-8.9%
NC(=NCCc1ccccc1)NS(=O)(=O)c1ccccc1	10.5%	2.8%	6.3%	-1.6%	-6.5%	6.6%	11.2%	-5.8%
O=C(Nc1cccnc1Cl)c1cc(-c2ccc(O)cc2)on1	3.6%	-0.6%	20.6%[46.1 µM]	/	1.6%	0.5%[46.1 µM]	/	0.0%
CCC(=O)c1ccc(OCC(O)CN2CCOCC2)cc1 (stereo not given)	0.3%	12.0%	4.9%	0.9%	13.6%	-2.5%	-6.2%	8.6%
COC(=O)c1ccc(NS(=O)(=O)c2cc3c4c(c2)CCN4C(=O)CC3)cc1	/	-4.7%	-13.7%[46.1 µM]	/	5.1%	-1.3%	/	21.0%
CN(C)CCCN(C(=O)c1ccc(C(=O)c2ccccc2)cc1)c1nc2cc3c(cc2s1)OCCO3	-20.1%	1.6%	?	/	12.8%	?	/	-1.3%
COC(=O)c1ccccc1NC(=O)CSc1nnc(-c2cccnc2)o1	-10.2%	-1.3%	?	/	-4.5%	/	/	58.1%[activator]
CCN(CC)S(=O)(=O)c1ccc(Cl)c(NC(=O)COC(=O)c2c(C)noc2C)c1	8.1%	-5.9%	?	-0.2%	7.8%	-28.4%	3.0%	?
CC(C)CC(=O)NC(=S)Nc1ccc(S(=O)(=O)Nc2nccs2)cc1	5.5%	-18.6%	10.5%	-4.6%	6.4%	-12.6%	-8.8%	73.4%[activator]
O=c1cn[nH]c2ccc(Br)cc12	/	/	?	/	-5.6%	-2.3%[46.1 µM]	/	-18.2%
CCOC(=O)C1(Cc2cccc(Cl)c2)CCCN(C(=O)c2cccc(C)n2)C1 (stereo not given)	-0.3%	-0.1%	7.08µM*	/	1.2%	?	/	-13.6%
O=C(COC(=O)C1CC1)Nc1ccc2c(c1)OCO2	/	0.3%	?	/	-11.9%	18.5%	/	68.5%[activator]
O=C(OCC(=O)c1ccc(Cl)s1)c1ccc(CO)cc1	/	-10.0%	0.0%	/	7.7%	7.2%	/	55.9%[activator]
Cc1ccc(NC(=O)C2CCCN(c3ncnc4onc(-c5ccc(F)cc5)c34)C2)c(Cl)c1 (stereo not given)	/	/	/	-1.2%	/	17.5%[46.1 µM]	-8.2%	-16.1%
CCCCCCC[n+]1ccc(-c2cc[n+](CCCCCCC)cc2)cc1	-8.7%	-29.4%	?	-0.5%&-2.0%	6.31µM*	-26.8%	3.6%&3.4%	-6.6%&2.1%
CN(CCO)C(=O)CCC(=O)Nc1ccc(S(N)(=O)=O)cc1	-5.5%	3.4%	-10.8%	5.2%	0.5%	-6.3%	-6.3%	-7.1%
COc1ccc(C)cc1NS(=O)(=O)c1ccc2c(c1)[C@H]1C=CC[C@H]1[C@@H](c1cccc(Cl)c1)N2	/	/	25.1%[46.1 µM]	-14.9%	/	23.6%[46.1 µM]	?	-6.7%
CCn1c(CNC(=O)c2cccc(C)c2)nnc1SCC(=O)NC1CCCC1	1.3%	0.2%	?	/	-6.3%	/	/	10.6%
CCc1ccc2c(c1)c1nnc(NN)nc1n2C	-4.9%	-1.7%	9.9%[46.1 µM]	/	-21.4%	-1.3%	/	-2.7%
COc1ccccc1NC(=O)C(C)OC(=O)Cc1n[nH]c(=O)c2ccccc12 (stereo not given)	/	3.1%	0.3%	/	27.1%	2.2%[46.1 µM]	/	-7.9%
CC(=O)c1ccc(NC(=O)c2noc(C)c2[N+](=O)[O-])cc1	-0.4%	-2.8%	/	/	-24.3%	/	/	34.9%[activator]
COc1cccc(-c2cc(C(=O)N3CCN(C(=O)c4ccco4)CC3)[nH]n2)c1	1.5%	-0.8%	/	/	-0.4%	/	/	9.9%
CC1Cc2ccccc2N1C(=O)CSc1nc2ccc(NC(=O)COc3ccccc3)cc2s1 (stereo not given)	/	/	?	-0.7%	/	?	7.3%	-15.4%
COc1ccc(OCc2nnc(SCC(=O)N3CCOCC3)o2)cc1	1.6%	0.9%	20.5%[46.1 µM]	/	36.0%	3.5%	/	-10.9%
CCOc1ccc(S(=O)(=O)NCCC(=O)N(CC)CC(=O)Nc2c(F)cccc2F)cc1	/	/	-0.9%[46.1 µM]	/	-4.1%	16.5%	/	3.3%
CC(C)C(=O)O/N=C1\CCS(=O)(=O)c2sccc21	7.5%	0.4%	?	/	4.1%	3.7%	/	-2.4%
Cc1c(C(=O)N2CCOCC2)c(S(=O)(=O)Nc2cccc(Br)c2)c(C)n1C	-0.6%	-3.4%	-4.3%[46.1 µM]	/	-14.8%	8.4%	/	71.2%[activator]
O=C(c1ccccc1F)N1CCN(c2ccccc2)CC1	-6.3%	6.1%	8.9%	1.4%	-0.6%	-15.7%	-0.5%	-0.8%
CCN(CC(=O)Nc1ccccc1C(F)(F)F)C(=O)CN1C(=O)NC2(CCCCC2)C1=O	/	-3.5%	-3.4%	/	-12.8%	-0.2%	/	-17.3%
Cc1ccc(NC(=O)c2ccc(Cl)c(S(=O)(=O)NCc3ccco3)c2)c(O)c1	/	-1.4%	-19.9%	/	-3.2%	?	/	38.8%[activator]
COc1ccc(N2CC(NC(=O)c3ccc(S(=O)(=O)N4CCCCC4)cc3)CC2=O)cc1OC (stereo not given)	/	/	/	-3.4%	/	9.0%[46.1 µM]	?	-11.2%
CCC(C)(C)n1nnnc1C(c1cccnc1)N1CCN(c2cccc(C(F)(F)F)c2)CC1 (stereo not given)	-116.4%	-29.8%	13µM*	-8.4%	19.0%	?	?	-29.5%
O=C(CNC(=S)NC(=O)c1ccco1)c1ccccc1	-59.5%	3.5%	?	6.0%	-12.5%	?	2.9%	45.3%[activator]
COc1cccc(N2CCN(Cc3cc(=O)oc4cc(C)ccc34)CC2)c1	/	/	3.0%[46.1 µM]	-4.4%	/	-15.1%[46.1 µM]	-0.2%	-25.6%
COc1ccc(C2(C)NC(=O)N(CC(=O)Nc3ccc4c(c3)OCO4)C2=O)cc1OC (stereo not given)	14.6%	-3.0%	-3.9%	1.1%	-8.6%	5.7%	?	5.1%
O=C(c1ccc(S(=O)(=O)N2CCCCCC2)cc1)N(c1ccccn1)C1CCCCC1	/	-11.3%	?	/	4.7%	?	/	-5.1%
COc1ccc(OC)c(C2C(C#N)=C(N)Oc3cc(C)[nH]c(=O)c32)c1 (stereo not given)	-4.9%	4.3%	7.6%&7.6%	2.7%	-2.7%	4.9%	3.1%	7.8%
CCCCN(CCCC)CCNC(=O)CN1C(=O)COc2ccc(S(=O)(=O)N3CCC(C)CC3)cc21	-5.1%	-5.4%	?	/	-5.6%	?	/	-4.9%
COc1ccc2c(-c3cccnc3)cc(=O)[nH]c2c1	-4.6%	0.0%	?	-5.1%	19.2%	7.7%	-7.7%	-9.6%

Fetched by structure from above:
SMILES	NS1 inh	SARS PLP yeast	MARV entry inh	Cruzain inh Det	RE007 growth inh	LASV entry inh	Cruzain inh noDet	StopGo reporter
CCCn1nc(C(=O)NNC(=O)c2cc(S(=O)(=O)NC)ccc2Br)c2ccccc2c1=O	/	4.7%	13.0%[46.1 µM]	/	1.4%	?	/	-7.7%
COc1ccc(C2(C)NC(=O)N(CC(=O)Nc3ccc4c(c3)OCO4)C2=O)cc1OC (stereo not given)	14.6%	-3.0%	-3.9%	1.1%	-8.6%	5.7%	?	5.1%
CCOc1ccc(S(=O)(=O)NCCC(=O)N(CC)CC(=O)Nc2c(F)cccc2F)cc1	/	/	-0.9%[46.1 µM]	/	-4.1%	16.5%	/	3.3%
Cc1ccc(NC(=O)C2CCCN(c3ncnc4onc(-c5ccc(F)cc5)c34)C2)c(Cl)c1 (stereo not given)	/	/	/	-1.2%	/	17.5%[46.1 µM]	-8.2%	-16.1%
